Screens as filed in PubChem.
NPYLR7 agonist – activates Aedes aegypti NPYLR7 receptor; 0.15% of 270,000 active; activation, % at 10 µM; AID 1259423; HEK293T NPYLR7/Galpha15, GCaMP6s calcium fluorescence; in the data active = activation above about 40%;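 note: 0% = vehicle and 100% = reference agonist at the receptor; some compounds past the cut are filed as inactive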
NPYLR7 agonist max-min – second read-out of NPYLR7 agonist, no call of its own (marks repeat the call); activation, %; measured here: Max-Min RFU normalised activation; some inactives read as strong as hits;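 span of the calcium signal over five minutes; 0% = vehicle and 100% = native peptide agonist; compound fluorescence can raise it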
Numbers without * were called inactive; & = joins results of further samples. Not all compounds are listed; the hit share may differ from the screen's.

SMILES | NPYLR7 agonist | NPYLR7 agonist max-min
CCNC(=O)NC(=O)CSc1ccc(S(=O)(=O)N2CCCCCC2)cn1 | 9 | 8
Cc1ccc(-n2c(SCc3ccc(C(=O)N4CCCC4)cc3)nnc2-c2cccnc2)cc1 | 12 | 21
CC(C#N)CSc1ccccc1NCC(=O)NC(C)(C#N)C1CC1 (centres undefined) | 6 | 5
COCCNC(=O)Cn1cc(-c2nnc(C)o2)c2ccccc21 | 1 | 7
CCc1nc(CN(C)C(=O)NC2CCCOc3ccc(F)cc32)cs1 (centres undefined) | -25 | -24
O=c1cc(CN2CCCC(N3CCN(Cc4ccc5c(c4)OCO5)CC3)C2)[nH]c(=O)[nH]1 (centres undefined) | 4 | 1
CC1(C)CC(=O)C(Sc2ccc(Br)cc2)C(=O)C1 | -9 | -11
CCc1nc2n(n1)C(O)c1cc(N)ccc1S2 (centres undefined) | -5 | -7
CN1C(=O)C(=C2SC(=S)N(C(CCC(=O)O)C(=O)O)C2=O)c2ccccc21 (centres undefined) | -3 | -6
O=C1N(Cc2ccccc2)C(=O)C2(CCN(Cc3ccsc3)CC2)N1CCc1ccccc1 | 10 | -1
O=C1/C(=C/c2cccnc2)SC(=S)N1C1CCCCC1 | -7 | -14
CCc1nc2ccc(C(=O)NCC3CCCCC3)cn2c1N(C)CCN1CCOCC1 | 12 | 10
COc1ccccc1C1(CCN)CCOC(C)(C)C1 (centres undefined) | -4 | -8
CN(C)C(=O)c1nnc2n1CCN(C(=O)c1ccccc1)C2 | 7 | 5
Cc1cccc(NC(=O)COc2ccc(/C=C\c3[nH]c(=O)[nH]c(=O)c3[N+](=O)[O-])cc2)c1 | -10 | -16
CSc1cccc(CN2CC[C@@H](N3CCN(c4ccccn4)CC3)[C@H](O)C2)c1 | 2 | -1
Cc1cccc(-n2nc(C(=O)NCC3CCCO3)c(=O)n(Cc3cccc(F)c3)c2=O)c1 (centres undefined) | 13 | 10
COc1ccc(C2=NOC(CN(Cc3cccc(C(F)(F)F)c3)C(=O)c3ccccc3F)C2)cc1 (centres undefined) | 2 | 4
O=C(Nc1nnc(N2CCCCCC2)s1)c1csc2c1CCCC2 | 5 | 5
O=C(NNC(=O)c1cccn(Cc2ccc(F)cc2)c1=O)c1cc2ccccc2o1 | -11 | -18
Clc1ccc(SCCCNC2CCCC2)cc1 | 13 | 12
CC1CCc2nc(/C(C#N)=C/c3ccc(O)cc3)sc2C1 (centres undefined) | 4 | 2
COc1ccc(Cc2nc3ccc(C(=O)NCCOc4cccnc4)cc3o2)cc1OC | 2 | 1
CN(Cc1cn[nH]c1-c1ccc(F)cc1)Cc1cccn1-c1nccs1 | 21 | 9
Cn1c(=S)n(CN2CCC(NC(=O)C3CC3)CC2)c2cc(Cl)ccc21 | 4 | 3
Additional entries follow:
SMILES | NPYLR7 agonist | NPYLR7 agonist max-min
NC(=O)c1ccsc1NC(=O)CSc1nnc(C2CC2)n1C1CC1 | 8 | 13
CC(=O)c1ccc(-c2nccc(CCC(F)(F)F)n2)s1 | 5 | 0
Cc1ccc(Nc2ccc(N3CCN(C(=O)/C=C/c4ccccc4)CC3)nn2)cc1 | 10 | 8
COc1ccc2c(c1)C1(C)CCCc3c1n-2c(=O)c1c(O)cc(=O)oc31 (centres undefined) | 3 | 1
O=C(CCN1C(=O)c2ccccc2C1=O)Nc1ccc([N+](=O)[O-])cc1 | -5 | -9
Cc1noc(-c2cccs2)c1C(=O)NCCOc1ccccc1 | -8 | -7
O=C1CCCN1c1ccc(C2=CSC3=NS(=O)(=O)CCN23)cc1 | -3 | -5
COc1ccc(C(C)(C)C)cc1S(=O)(=O)N1CCc2c(nc[nH]c2=O)C1 | 3 | 3
O=C(Oc1coc(CSc2ncccn2)cc1=O)C1c2ccccc2Oc2ccccc21 | -5 | 2
O=C(NC1CCN(C(=O)c2cc(-c3ccccc3)n[nH]2)CC1)c1ccc2ccccc2n1 | -8 | -10
O=C1C=CC2OC(c3ccccc3)C(O)C2O1 (centres undefined) | -8 | -15
CCCCCNc1nc2c(-c3ccc(Cl)cc3)nnn2c2ccccc12 | -2 | -6
O=C(COCc1ccccc1)N1CCc2ccccc2C1c1ccccc1F (centres undefined) | -4 | -1
COc1cccc(SCC(=O)Nc2cnc3n2CCCC3)c1 | -4 | -3
CSCCCNC(=O)C1CCCN(c2nc(C)c3ccc(S(C)(=O)=O)cc3n2)C1 (centres undefined) | 2 | -3
CC(C)(C)c1ccccc1S(=O)(=O)N1CCN2C(=O)C(=O)NCC2C1 (centres undefined) | -7 | -7
Cc1nn(-c2ccc(Br)cc2)c2c(=O)ccccc12 | 0 | 0
COc1ccc(OC)c2sc(N(CC3CCCO3)C(=O)c3cc(C)no3)nc12 (centres undefined) | -3 | 2
O=c1cc(CS(=O)(=O)c2ccc(C3CCCCC3)cc2)nc2ccccn12 | 9 | 5
COc1ccccc1NC(=O)C1=C(C)N(CCC(C)C)C(=O)NC1c1cccc(F)c1 (centres undefined) | 0 | -4
C=C1C(C)(C)[C@H]2CC[C@]1(C(=O)NCCCN1CCC(O)CC1)C2 | 2 | -3
CS(=O)(=O)Nc1ccc(C2=NN(C(=O)C3CCCCC3)C(c3cccc(F)c3)C2)cc1 (centres undefined) | -1 | -1
COc1ccc(Br)cc1S(=O)(=O)NCc1ccco1 | 1 | 4
CCOc1ccc(-c2nc[nH]c2-c2ccccc2)cc1CO | 1 | -1
O=C(NCCc1ccccn1)c1csc(COc2cccc(Cl)c2)n1 | 1 | -9

18 entries already listed, sorted by count of non-hydrogen atoms, ascending.
SMILES | NPYLR7 agonist | NPYLR7 agonist max-min
Clc1ccc(SCCCNC2CCCC2)cc1 | 13 | 12
CC1(C)CC(=O)C(Sc2ccc(Br)cc2)C(=O)C1 | -9 | -11
Cc1nn(-c2ccc(Br)cc2)c2c(=O)ccccc12 | 0 | 0
O=C1/C(=C/c2cccnc2)SC(=S)N1C1CCCCC1 | -7 | -14
CC1CCc2nc(/C(C#N)=C/c3ccc(O)cc3)sc2C1 (centres undefined) | 4 | 2
COc1cccc(SCC(=O)Nc2cnc3n2CCCC3)c1 | -4 | -3
O=C1CCCN1c1ccc(C2=CSC3=NS(=O)(=O)CCN23)cc1 | -3 | -5
CC(C#N)CSc1ccccc1NCC(=O)NC(C)(C#N)C1CC1 (centres undefined) | 6 | 5
Cn1c(=S)n(CN2CCC(NC(=O)C3CC3)CC2)c2cc(Cl)ccc21 | 4 | 3
COc1ccc(C(C)(C)C)cc1S(=O)(=O)N1CCc2c(nc[nH]c2=O)C1 | 3 | 3
CN1C(=O)C(=C2SC(=S)N(C(CCC(=O)O)C(=O)O)C2=O)c2ccccc21 (centres undefined) | -3 | -6
COc1ccc(OC)c2sc(N(CC3CCCO3)C(=O)c3cc(C)no3)nc12 (centres undefined) | -3 | 2
CSCCCNC(=O)C1CCCN(c2nc(C)c3ccc(S(C)(=O)=O)cc3n2)C1 (centres undefined) | 2 | -3
Cc1ccc(Nc2ccc(N3CCN(C(=O)/C=C/c4ccccc4)CC3)nn2)cc1 | 10 | 8
O=c1cc(CN2CCCC(N3CCN(Cc4ccc5c(c4)OCO5)CC3)C2)[nH]c(=O)[nH]1 (centres undefined) | 4 | 1
Cc1cccc(-n2nc(C(=O)NCC3CCCO3)c(=O)n(Cc3cccc(F)c3)c2=O)c1 (centres undefined) | 13 | 10
Cc1ccc(-n2c(SCc3ccc(C(=O)N4CCCC4)cc3)nnc2-c2cccnc2)cc1 | 12 | 21
COc1ccc(C2=NOC(CN(Cc3cccc(C(F)(F)F)c3)C(=O)c3ccccc3F)C2)cc1 (centres undefined) | 2 | 4

Back to the main list, repeating the two entries before the break.
SMILES | NPYLR7 agonist | NPYLR7 agonist max-min
CCOc1ccc(-c2nc[nH]c2-c2ccccc2)cc1CO | 1 | -1
O=C(NCCc1ccccn1)c1csc(COc2cccc(Cl)c2)n1 | 1 | -9
CC(C)(C)n1ccc(C(=O)NC2CC(=O)N(Cc3ccccc3Cl)C2)c1 (centres undefined) | -7 | -14
CN(C)Cc1ccccc1Sc1ccc(O)cc1 | -6 | -7
Cc1c(CCNS(=O)(=O)c2ccc(Cl)cc2)sc2nc(-c3ccc(Cl)cc3)nn12 | 0 | 0
O=C(Nc1ccc(Cl)cc1)Nc1ccccc1SCc1cc(=O)[nH]c(=O)[nH]1 | 4 | 6
COc1cccc(NC(=O)CCC2CCN(CC3CC=CCC3)CC2)c1 (centres undefined) | 13 | 3
Cc1ccc(-c2ccc(CCC(=O)NCc3cccc(Cl)c3)n2-c2ccc(CC#N)cc2)c(C)c1 | 21 | 11
COC(=O)c1cccc(CSc2nnc(-c3cc(OC)cc(OC)c3)n2-c2ccc(C)cc2)c1 | 3 | 13
O=C(Nc1ccnn1Cc1cccs1)C1CC=CCC1 (centres undefined) | 3 | 8
O=C1OC(/C=C/c2ccc([N+](=O)[O-])cc2)=NC/1=C/c1ccc(Br)cc1 | -4 | -5
CCc1cc(CNC(=O)C2CCC(=O)N(CCc3ccccn3)C2)on1 (centres undefined) | 0&1 | -2&-3
Cc1ccc(-c2nn(CC(=O)Nc3ccc(F)cc3)c(=O)c3nc(C)sc23)c(C)c1 | 0 | -3
CCN(C(=O)c1cc(-c2ccc(F)cc2)n[nH]1)C1CCS(=O)(=O)C1 (centres undefined) | -5 | -6
COC(=O)c1ccc([C@H]2CN(C(=O)c3ccccc3)C[C@@H]2O)cc1 | 13 | 7
Cc1ccc(C(=O)Nc2ccc(SCC(=O)NCC3CCCO3)nn2)cc1 (centres undefined) | -1 | -3
CCCC(=O)NC1CCCN(C(=O)c2ccc(SC(F)(F)F)cc2)C1 (centres undefined) | 0 | 0
CCCc1nc(N2CCNCC2)c2c(C)nn(-c3ccc(F)cc3)c2n1 | 3 | 7
CSC1=C(C#N)C(C)CC(=O)N1 (centres undefined) | 10 | 10
O=S(=O)(NCc1cn2ccsc2n1)c1ccccc1 | 3 | 3
COc1cccc(CN(C)C2CCS(=O)(=O)C2)n1 (centres undefined) | 3 | -1
CC(C)(O)c1ccc(CN(Cc2ccsc2)C2CC2)o1 | 3 | 10
O=C(O)c1[nH]ncc1CN1CCc2onc(-c3ccc(C(F)(F)F)cc3)c2C1 | 79* | 41*
CN(CC(=O)N1CCCC1Cn1cccn1)c1ncnc2nc[nH]c12 (centres undefined) | -3 | 285
O=C1COCc2cc(-c3cnc4ccccc4c3)ccc2N1CCN1CCOCC1 | 5 | 3
CN1N=C(C(=O)N2CCOC(CCCc3ccccc3)C2)CCC1=O (centres undefined) | 13 | 1
NC(=O)C1CCN(CCOc2ccc(-c3[nH]ncc3-c3ccccc3)c(O)c2)CC1 | 3 | 2
Following part.
SMILES | NPYLR7 agonist | NPYLR7 agonist max-min
COc1ccccc1-c1cc(C(=O)N2CCN(Cc3ccc4c(c3)OCO4)CC2)n2nc(-c3ccccc3)cc2n1 | 20 | 13
Cn1c(SCC(=O)Nc2ccccc2OC(F)F)nnc1-c1ccco1 | -5 | -7
O=C(NC1CCN(c2ccccc2C(=O)N2CCN(c3ccccn3)CC2)CC1)C1CCC1 | -2 | 11
CCc1[nH]c2ccc(CNC(=O)c3ccn[nH]3)cc2c1C | 19 | 16
COc1cccc(CN2CCCC(O)(CN3CCSCC3)C2=O)c1OC (centres undefined) | 7 | 6
CCOc1ccccc1-c1cc(-c2nnc(SCc3c(F)c(F)c(F)c(F)c3F)n2C)c2ccc(Oc3ccccc3)cc2n1 | 11 | 7
CCN(CC)S(=O)(=O)c1ccc(Oc2ccc(F)c(Cl)c2)nc1 | 0 | -1
CCn1ncc(/C=C/C(=O)c2ccc(F)cc2)c1C | -7 | -9
NC(=O)c1c(SCC(=O)C23CC4CC(CC(C4)C2)C3)sc2c(O)cc(=O)[nH]c12 | -1 | 31
CC(C)c1cc(C2CCN(C(=O)c3n[nH]c(=O)c4ccccc34)CC2)[nH]n1 | 0 | -9
COc1ccc(-c2ccc(=O)n(CCCNC(=O)c3ccco3)n2)cc1 | -4 | -6
c1ccc(-c2ncn(CC3CCCCO3)c2-c2ccnc3ccccc23)cc1 (centres undefined) | 4 | 3
Cn1c2ccc(Br)cc2c2nnc(SCc3ccc4nonc4c3)nc21 | 1 | -3
CCOCCn1c(=NC(=O)c2cc(C)nn2CC)sc2cc(S(N)(=O)=O)ccc21 | 5 | 11
Cc1cc(Oc2cc(N3CCN(C(=O)C(C)(C)CCl)C(C)C3)ncn2)ccc1Cl (centres undefined) | -7 | 7
COc1ccccc1/C=N\N(CCOC(=O)c1ccccc1OC)C1=NS(=O)(=O)c2ccccc21 | -18 | -8
CN(C)CCNC(=O)c1coc(CN(Cc2ccc(F)cc2)Cc2cccc(Cl)c2)n1 | 1 | 3
Cc1csc(=O)n1CCN(C)Cc1ccc(-c2ccccc2)cc1 | 10 | 8
C=CCNC(=O)NC1CCN(c2ccccc2C(=O)NCc2cccnc2)CC1 | 23 | 13
CCCn1c(C(=O)NCC(C)C)cc2c(=O)n(C)c(=O)n(C)c21 | -2 | -4
Cc1ccc(OCCSc2nc3ccccc3n2CC(O)CO)cc1C (centres undefined) | -3 | 2
COc1cc(C(=O)O)ccc1OC(C)C(=O)NC1CCCCCC1 (centres undefined) | 12 | 12
Cc1cc(C(NC(=O)N(C)Cc2ncnn2C)C(C)C)c(C)s1 (centres undefined) | 5 | 4
O=C(Nc1ccc(I)cn1)C1CCOCC1 | -1 | 24
COCCN(C)c1ccc(-c2nc(-c3ccccc3F)no2)cn1 | 10 | 4
Cc1ccc(S(=O)(=O)N2CCN(C(=O)CCc3ccco3)CC2)cc1C | -2 | -6
O=C(Cc1nc(-c2ccncc2)n[nH]1)NCCc1cccs1 | 5 | 2
Cc1ccc(C2(C(F)(F)F)N=C(Cl)C(C#N)=C3C=CC=CN32)cc1 (centres undefined) | 15 | 15
COc1ccc2nc(N(CCN(C)C)C(=O)c3cc(C)n(C)n3)sc2c1 | 9 | 9
Cc1ccc(C)c(S(=O)(=O)N2CCN(C(=O)NC3CC3)CC2)c1 | -4 | -7
